Screens (PubChem BioAssay)
Menin-MLL FL inh: displaces fluorescein MLL peptide from human menin; Fluorescence polarization, fluorescein-MLL peptide displacement from menin; FP activity change, % at 61.4 µM; 290,000 tested, under 10 active; AID 1766; inconclusive = falling polarisation curve, or a change in total fluorescence; inactive = total fluorescence flat and polarisation flat or rising; no compound was filed as active; the % refers to the polarisation; negative = inhibition;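 note: % of control where 0% means no effect; inhibitors lower the polarisation; unlabelled MLL peptide was the positive control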
ClpP mod: qHTS Assay for Activators of ClpP. Potency, µM (highest dose often 57.5 µM), for inactives: at the highest dose activity change, negative = active. 1.9% of 340,000 active. purified B. subtilis ClpP, FRET peptide cleavage, 20 min. ATP-dependent Clp protease proteolytic subunit (Bacillus subtilis (strain 168)), P80244; active = well fitted falling curve with a large enough effect; inconclusive = small, poorly fitted or top-dose-only effect; inactive = no such curve, though single readings can be large or run the other way; note: potency is the fitted concentration of half-maximal effect; the source files actives as falling curves though it sought activators and does not explain the sign; nearly all actives have a fitted effect of over 65% in size; many hits overshoot -100%
Target sequence (P80244 whole entry, looked up): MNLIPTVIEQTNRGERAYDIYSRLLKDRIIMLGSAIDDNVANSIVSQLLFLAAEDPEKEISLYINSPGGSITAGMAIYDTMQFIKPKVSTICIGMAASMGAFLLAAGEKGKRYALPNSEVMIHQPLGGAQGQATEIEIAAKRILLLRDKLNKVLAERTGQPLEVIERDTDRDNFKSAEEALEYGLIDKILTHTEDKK
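FRET quenching reversal measured ClpP activation: 10 microg/mL B. subtilis ClpP at pH 8 with the FRET-FV decapeptide, read at 430 nm after 320 nm excitation. The 20-min minus 0-min signal was scaled between DMSO/no-enzyme wells and ADEP (5.8 microM final).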
Sfp inh: inhibitors of Bacillus subtilis Sfp phosphopantetheinyl transferase | Biochemical Sfp PPTase activity, qHTS | Potency, µM, inactives show max response, negative = inhibition, hits mostly inhibitors | 3.5% of 310,000 active; active = well fitted inhibition curve with a large enough effect; inconclusive = small, poorly fitted or top-dose-only effect, or another doubt; inactive = no such curve, though single readings can be large or run the other way;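 note: the enzyme is Sfp with the accession as filed and its product quenches rhodamine fluorescence; potency is the fitted concentration of half-maximal effect; 0% = enzyme reaction without inhibitor and -100% = no enzyme wells; top concentration of the series not given in the record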
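Buffer: 50 mM Hepes-Na pH 7.6, 10 mM MgCl2, 0.01% Nonidet P-40, 0.01% BSA. Enzyme 15 nM, pre-exposed to compound 15 min; substrates then added and fluorescence change tracked over 30 min.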
TRPV1 potentiator: human TRPV1 potentiation | Q8NER1 | TRPV1-expressing cells, Fluo-8 calcium influx, capsaicin EC20 potentiation; host cell line not named in the record; control for the full effect not named in the record | potentiation, % at 8.33 µM | 0.02% of 320,000 active | AID 540277; active means potentiation above 80%; inconclusive means 30% to 80%; inactive means below 30%; note: 0% is about no effect
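Fluo-8 calcium influx in TRPV1-expressing cells, kinetic read (ex 480/em 520 nm). Compound added and read 3 min for agonist activity, followed by capsaicin at EC20 final and 2 min further read for enhancement.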
gsp antagonist: gsp mutant antagonism; AID 624288; Potency, µM (doses to about 76.9 µM), inactives show at the top dose activity change, negative = inhibition, most hits filed as inhibitors; gsp-mutant cells, cAMP HTRF, 30 min; control for the full effect not named in the record; 0.4% of 340,000 active; active = falling curve of any shape with a large fitted effect; inconclusive = falling curve, mostly with a smaller effect; inactive = flat or rising curve; cell line not stated here;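 note: intracellular cAMP measured with PDE inhibitor Ro 20-1724 present during compound exposure; potency is the fitted concentration of half-maximal effect; % is set by controls: 0 for no effect and ±100 for the full control effect; nearly all actives have a fitted effect of over 65% in size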
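Measurement of cellular cAMP by homogeneous time-resolved fluorescence following a 30 min compound exposure at 37C. The PDE inhibitor […] was present throughout; the assay buffer was DPBS with 0.05% BSA and 0.005% Tween 20.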
gsp ag: activates gsp, the McCune-Albright syndrome mutation; gsp mutant cells, cAMP HTRF, 30 min; control for the full effect not named in the record; Potency, µM (highest dose often 76.9 µM), for inactives: top-dose activation (cAMP increase), most hits filed as activators; 0.13% of 340,000 active; active = well fitted activation curve with a large enough effect; inconclusive = small, poorly fitted or top-dose-only effect, or another doubt; inactive = no such curve, though single readings can be large or run the other way; cell line not stated here;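 note: phosphodiesterase inhibitor Ro 20-1724 added with compounds to block cAMP breakdown; potency is the fitted concentration of half-maximal effect; nearly all actives have a fitted effect of over 60% in size; about a fifth of the inactives were tested at one dose only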
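Cells stably selected in G418 were plated at 2000/well, grown 16-24 hr, then given compounds in DMSO with the PDE inhibitor […] (300 uM solution added) for 30 min at 37C; cAMP was read by HTRF.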
D2 PAM: potentiates the human D2 dopamine receptor allosterically. P14416. DiscoveRx D2 beta-arrestin cells, luminescence, 90 min; 100% = 57 uM dopamine signal. potentiation, % (concentration not given with the values). 0.23% of 360,000 active. AID 624464; active = potentiation of 50% or more; inconclusive = 30% to 50%; inactive = 30% or less;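 note: compound concentration not given in the record; tested on top of an EC20 dose of dopamine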
Target sequence (P14416 whole entry, looked up): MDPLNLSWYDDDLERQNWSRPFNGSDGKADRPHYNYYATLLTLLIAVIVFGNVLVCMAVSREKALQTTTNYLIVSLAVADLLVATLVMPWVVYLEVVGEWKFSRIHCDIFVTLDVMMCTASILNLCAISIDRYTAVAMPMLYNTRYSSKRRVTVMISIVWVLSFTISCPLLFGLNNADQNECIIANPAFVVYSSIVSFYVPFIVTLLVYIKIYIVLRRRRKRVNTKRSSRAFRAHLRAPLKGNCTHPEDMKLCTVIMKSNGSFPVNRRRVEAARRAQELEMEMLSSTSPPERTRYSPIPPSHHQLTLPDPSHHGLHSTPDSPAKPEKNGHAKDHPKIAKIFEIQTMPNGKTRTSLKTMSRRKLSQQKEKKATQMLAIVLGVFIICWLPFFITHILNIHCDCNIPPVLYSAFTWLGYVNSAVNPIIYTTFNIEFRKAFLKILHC
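PathHunter D2 cells, attached overnight at 37 deg C, received compound in DMSO plus dopamine at EC20 (50 nM final) for 90 min at 37 deg C. Beta-arrestin recruitment was read as luminescence after 1 h with detection reagent at ambient temperature.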
Starred values were filed as active, the others as inactive; ? = inconclusive; . = not tested or not shown; [ ] = dose if it differs, or a comment.

SMILES	Menin-MLL FL inh	ClpP mod	Sfp inh	TRPV1 potentiator	gsp antagonist	gsp ag	D2 PAM
CCOc1ccc(NC(=O)/C(=C\c2ccc(OC(C)=O)c(OC)c2)NC(C)=O)cc1	9.1	5.4%	-11.7%	-5.1	2.6%	6.8%[15.4 µM]	-4.6
NS(=O)(=O)c1ccc(CCNS(=O)(=O)c2cccc3cccnc23)cc1	4.0	-0.4%	2.2%	-16.4	-4.2%	-17.3%	-1.4
Cc1ccc(C(CC(=O)O)NC(=O)c2ccc(S(=O)(=O)N3CC(C)OC(C)C3)cc2)cc1 (stereo not given)	.	1.1%	.	8.2	11.7%	-26.8%	-12.8
COc1ccc(-n2c(=O)c3c4c(sc3n(Cc3cccc(F)c3)c2=O)CN(C(C)=O)CC4)c(OC)c1	-0.7	.	4.0%	2.3	.	.	.
Cc1sc2nc(CN3CCOCC3)nc(NS(=O)(=O)c3ccc4c(c3)OCCO4)c2c1C	-0.4	0.0%	12.0%	-2.9	-17.1%	26.1%	-11.2
COc1ccc2[nH]cc(CCNS(=O)(=O)c3ccc(NC(C)=O)cc3)c2c1	0.0	.	-1.0%	1.9	-3.0%	18.6%[15.4 µM]	2.7
Cc1ccccc1N(CC(=O)NC1CCCC1)C(=O)c1oc(C(C)(C)C)cc1C	-2.2	3.6%	8.6%	-22.5	-7.5%	?	0.1
CCN1CCN(C(=O)/C=C/c2ccccc2[N+](=O)[O-])CC1	0.5	.	15.1%	0.7	2.8%	9.2%[15.4 µM]	8.4
Cc1ccc(OCCCC(=O)Nc2ccccc2C(F)(F)F)cc1	-2.7	-0.3%	4.9%	1.8	-0.7%	-24.9%	5.2
Cc1cc(C)cc(NC(=O)CSc2nc(N)c(NC(=O)c3ccc(Br)o3)c(=O)[nH]2)c1	.	-6.6%	-2.6%	18.2	-1.6%	7.2%[15.4 µM]	-19.6
O=C(CCN=C1NS(=O)(=O)c2ccccc21)OCC(=O)c1ccccc1Cl	.	-1.9%	.	13.1	1.9%	24.3%	-10.0
Cc1ccc(NC(=O)c2cnn(C)c2)cc1[N+](=O)[O-]	4.4	-2.2%	-1.1%	-21.1	3.7%	15.8%[15.4 µM]	-8.9
CCCC(=O)O[C@H]1C[C@@H](C)N(C(=O)c2ccccc2)c2ccc(C)cc21	0.7	-2.5%	?	-6.7	-17.6%	-30.9%[inhibitor]	-21.8
O=C(Nc1nc2n(n1)C(c1ccc(F)cc1)CC(c1ccccc1)N2)c1ccco1 (stereo not given)	4.4	-0.5%	0.3%	-8.4	-16.2%	-20.2%	-9.5
CCc1ccc(C2CC(=O)N(c3ccc(F)cc3)C3=C2C(=O)OC3)cc1 (stereo not given)	2.1	0.7%	1.4%	0.1	8.1%	0.1%	0.4

A stretch from further up:
SMILES	Menin-MLL FL inh	ClpP mod	Sfp inh	TRPV1 potentiator	gsp antagonist	gsp ag	D2 PAM
CCOc1ccc(NC(=O)/C(=C\c2ccc(OC(C)=O)c(OC)c2)NC(C)=O)cc1	9.1	5.4%	-11.7%	-5.1	2.6%	6.8%[15.4 µM]	-4.6
NS(=O)(=O)c1ccc(CCNS(=O)(=O)c2cccc3cccnc23)cc1	4.0	-0.4%	2.2%	-16.4	-4.2%	-17.3%	-1.4
Cc1ccc(C(CC(=O)O)NC(=O)c2ccc(S(=O)(=O)N3CC(C)OC(C)C3)cc2)cc1 (stereo not given)	.	1.1%	.	8.2	11.7%	-26.8%	-12.8
COc1ccc(-n2c(=O)c3c4c(sc3n(Cc3cccc(F)c3)c2=O)CN(C(C)=O)CC4)c(OC)c1	-0.7	.	4.0%	2.3	.	.	.

Continued:
SMILES	Menin-MLL FL inh	ClpP mod	Sfp inh	TRPV1 potentiator	gsp antagonist	gsp ag	D2 PAM
CC(CCc1ccco1)NC(=O)CCc1nnc2ccc(NCc3ccccc3Cl)nn12 (stereo not given)	.	-7.2%	-3.0%	3.4	-8.4%	25.2%	-6.7
CCn1cc(C(=O)NCc2ccc3c(c2)OCO3)c(=O)c2cc(S(=O)(=O)N(C)C)ccc21	-0.2	-14.2%	2.3%	-14.8	-13.6%	8.1%[15.4 µM]	-15.0
CC(C)c1ccc(C2C3=C(COC3=O)Nc3cc4c(cc32)OCO4)cc1 (stereo not given)	-4.4	-23.1%	10.3%	-1.2	0.4%	18.5%[15.4 µM]	2.5
O=C(NCC(c1ccco1)N1CCCC1)c1cc(S(=O)(=O)N2CCCCC2)ccc1Cl (stereo not given)	.	-2.4%	.	.	-3.4%	0.7%	-8.7
CCOC(=O)C(C)Oc1ccc(NC(=O)C(Cl)(Cl)Cl)cc1 (stereo not given)	-0.5	-2.0%	14.3%	?	?	-4.3%[15.4 µM]	4.4
COc1ccc(CCNC(=O)C2CCN(S(=O)(=O)N3CCCCCC3)CC2)cc1OC	-0.3	1.8%	10.3%	3.2	5.9%	-15.8%	-5.3
CCOC(=O)c1c(C)nc2c(c1-c1ccccc1)C(=O)c1ccccc1-2	3.1	-1.8%	-10.3%	-0.2	-1.6%	-5.1%	4.9
O=C(CCc1ccc(S(=O)(=O)N2CCOCC2)cc1)Nc1ccc2c(c1)OCCO2	0.5	-1.4%	13.8%	8.1	-6.8%	11.6%	-17.8
CC(C)(OC1OC(CO)C(O)C(O)C1O)[C@H]1Oc2ccc3ccc(=O)oc3c2[C@H]1O (stereo not given in full)	4.0	4.2%	9.6%	-1.9	4.3%	?	2.5
CCOC(=O)C1CCN(C(=O)COC(=O)c2cccc(NS(=O)(=O)c3ccccc3)c2)CC1	.	.	.	.	-13.5%	-20.6%[15.4 µM]	3.2
CCCCC[C@@H](/C=C/C1C(=O)C=C[C@H]1C/C=C\CCCC(=O)O)OC(C)=O (stereo not given in full)	.	-0.7%	.	.	-11.7%	.	-3.9
O=C(Cc1ccc(F)cc1)N1CCC(CC2CC(c3ccc(Cl)cc3)=NO2)(C(=O)NCC2CCCCC2)CC1 (stereo not given)	-0.8	-0.7%	15.0%	-9.4	-11.5%	-9.9%	-2.8
O=C(CSc1nnc(-c2ccccc2)o1)Nc1ccccc1F	4.0	-1.5%	-9.5%	-1.1	0.3%	7.5%	-4.2
COc1cc(C2C(C(=O)c3sc(C)nc3C)=C(O)C(=O)N2CCN(C)C)cc(OC)c1OC (stereo not given)	-1.0	-1.7%	13.3%	-5.0	-5.3%	28.2%	-5.4
CC1(C)CC(=O)C=C(c2n[nH]nc2-c2ccccc2)C1	.	-0.1%	.	.	.	-41.7%[inhibitor]	4.4

3 compounds already listed, arranged by their value in D2 PAM, ascending.
Molecule	Menin-MLL FL inh	Sfp inh	gsp antagonist	gsp ag	D2 PAM
CCn1cc(C(=O)NCc2ccc3c(c2)OCO3)c(=O)c2cc(S(=O)(=O)N(C)C)ccc21	-0.2	2.3%	-13.6%	8.1%[15.4 µM]	-15.0
CC(C)c1ccc(C2C3=C(COC3=O)Nc3cc4c(cc32)OCO4)cc1 (stereo not given)	-4.4	10.3%	0.4%	18.5%[15.4 µM]	2.5
CCOC(=O)C(C)Oc1ccc(NC(=O)C(Cl)(Cl)Cl)cc1 (stereo not given)	-0.5	14.3%	?	-4.3%[15.4 µM]	4.4

(listing goes on)
SMILES	Menin-MLL FL inh	ClpP mod	Sfp inh	TRPV1 potentiator	gsp antagonist	gsp ag	D2 PAM
CC(C)OCCCn1c(=S)[nH]c2ccc(N3CCOCC3)cc2c1=O	-7.9	31.8%	?	-11.0	?	47.7%	-7.2
CCOC(=O)c1ccc(NC(=O)CN2C(=O)NC3(CCC(C)CC3)C2=O)cc1 (stereo not given)	-2.8	.	19.5%	3.9	.	20.7%[15.4 µM]	-11.8
Cc1ccc(NC2CCCN(C(=O)C3CCCCC3)C2)cc1C (stereo not given)	4.0	-1.5%	5.9%	1.3	-7.5%	29.8%	-13.7
O=C(CSc1ccccn1)N1CCN(c2ncc(C(F)(F)F)cc2Cl)CC1	2.6	?	4.4%	-6.7	6.9%	-4.3%[15.4 µM]	-1.7
O=C(CN1C(=O)/C(=C/c2ccccc2Cl)SC1=S)NC1CCS(=O)(=O)C1 (stereo not given)	.	-0.3%	4.0%	0.4	-1.4%	-5.4%	-6.3
CC(=O)Oc1cccc(C(=O)Nc2ccc3c(c2)C(=O)N(CC2CCCO2)C3=O)c1 (stereo not given)	.	31.6µM*	-5.2%	-11.1	-0.8%	1.2%	14.3
Cc1cccc(N(C(=O)c2snc(C(N)=O)c2N)C(C(=O)NCC2CCCO2)c2ccc(N(C)C)cc2)c1C (stereo not given)	-1.1	-1.9%	-7.8%	1.0	-15.5%	?	-6.1
Cc1noc(C(=O)N2CCN(c3ccc(F)cc3)CC2)c1Cl	0.3	-1.2%	8.9%	-1.5	-9.2%	28.2%	-1.6
CC(C(=O)Nc1cccnc1)N1C(=O)C2C3C=CC(C3)C2C1=O (stereo not given)	2.4	-0.8%	9.1%	8.9	3.1%	1.9%	12.0
Cc1ccc(S(=O)(=O)NN=C2C(=O)C3CCC2C3Cl)cc1 (stereo not given)	.	0.7%	.	.	8.4%	24.1%	-2.4
COc1ccc(/C=C/c2ccc3c(Br)ccc(O)c3n2)cc1	7.3	.	-12.9%	23.3	13.0%	-0.4%[15.4 µM]	-17.8
CC1(C(=O)NC2CCCCCCC2)CCC(=O)N1Cc1cccnc1 (stereo not given)	4.2	-1.5%	19.7%	3.7	5.8%	?	-3.1
Cc1ccc(CNC(=O)C2CCCN(S(C)(=O)=O)C2)cc1 (stereo not given)	5.3	-0.2%	9.2%	-6.2	5.1%	5.1%	0.2
CCOc1ccccc1NC(=O)C(OC(=O)c1cc(C)oc1C)c1ccccc1 (stereo not given)	8.8	.	-6.6%	-1.6	-21.0%	-27.4%[15.4 µM]	4.8
Cc1ccccc1NC(=O)Cc1nnc(SCC(=O)N2CCOCC2)n1C	0.7	0.6%	28.6%	12.4	13.4%	-108.3%[inhibitor]	4.2
O=c1cc(-c2ccc(O)c(O)c2)oc2cc(O)c(C3OC(CO)C(O)C(O)C3O)c(O)c12 (stereo not given)	6.3	-0.3%	-11.9%	2.4	-7.6%	.	-11.0
